# VDR inhibitor: Inhibitors of the vitamin D receptor (VDR): qHTS; Vitamin D3 receptor (Homo sapiens), P11473; VDR-SRC2-3 peptide fluorescence polarization, 2 h; Potency, µM, for inactives: max response, negative = inhibition, hits mostly inhibitors; actives 0.93% (n = 400,000); active = well fitted inhibition curve with a large enough effect; inconclusive = small, poorly fitted or top-dose-only effect, or another doubt; inactive = no such curve, though single readings can be large or run the other way; note: series mostly up to about 120 µM
# Target sequence (P11473 whole entry, looked up): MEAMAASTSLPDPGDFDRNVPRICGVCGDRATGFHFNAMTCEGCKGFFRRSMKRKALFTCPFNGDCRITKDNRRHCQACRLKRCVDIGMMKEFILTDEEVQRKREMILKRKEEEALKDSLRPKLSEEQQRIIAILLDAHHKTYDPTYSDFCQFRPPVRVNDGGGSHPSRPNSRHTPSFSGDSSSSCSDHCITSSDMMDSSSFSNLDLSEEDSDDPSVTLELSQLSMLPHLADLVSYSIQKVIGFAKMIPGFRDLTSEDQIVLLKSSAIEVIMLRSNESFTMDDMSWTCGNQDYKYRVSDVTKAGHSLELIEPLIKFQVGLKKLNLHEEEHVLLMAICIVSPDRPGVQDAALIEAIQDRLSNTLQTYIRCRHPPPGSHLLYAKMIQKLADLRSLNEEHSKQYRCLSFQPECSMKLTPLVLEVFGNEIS
#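 FP read-out; VDR + SRC2-3 coactivator peptide; 23 nl compound by pintool; 2 h RT incubation; reagents held at 4 deg C, protected from light.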
# * hit, by the source's call; ? = inconclusive; & = joins results of further samples; [ ] = another dose, or the depositor's remark. % is set by controls: 0 for no effect and ±100 for the full control effect; potency is the fitted concentration of half-maximal effect. Only part of the results is shown; rates above refer to the full screens.
canonical_smiles | VDR inhibitor
Cc1nc2ccsc2c(=O)n1-c1ccccc1Cl | -1.8%
O=C(c1c[nH]c2ccc(S(=O)(=O)N3CCOCC3)cc2c1=O)N1CCC2(CC1)OCCO2 | -1.3%
COc1cc(OC)c2c(c1)OCC1CON(C)C21 (stereo not given) | 11.7%
COc1cc2c(cc1C=O)OCO2 | 0.2%
CCOP(=S)(OCC)SCSc1ccc(Cl)cc1 | 4.9%
Cn1c(O)c(C(=Nc2ccc(F)cc2)c2ccccc2)c(=O)n(C)c1=O | 1.1%
COc1cc2cc(C(=O)N3CC(COS(C)(=O)=O)c4ccc(O)cc43)[nH]c2c(OC)c1OC (stereo not given) | -3.1%
COC(=O)C1=C(c2ccc(OC(F)(F)F)cc2)C[C@@H]2CC[C@H]1N2C(=O)N1CCC(C)CC1 | 22.5%
CCCCC[C@@H](/C=C/C=C\CCCCCCCCCC(=O)O)OO | -12.5%
CCc1ccccc1NC(=O)CNCc1ccccc1 | 1.7%

# (next part)
canonical_smiles | VDR inhibitor
Cc1ccc(CN2C(=O)NC(=O)C3(Cc4c(nc5ccccn5c4=O)N4CCCCCC43)C2=O)cc1 (stereo not given) | -3.5%
CCN(CC)C(=O)c1ccc(NC(=O)CNC(C)c2cccc3ccccc23)cc1 (stereo not given) | 6.9%
Cc1ccc(-n2c(O)c(/C=N/N3CCOCC3)c(=O)[nH]c2=S)cc1 | -13.2%
FC(F)(F)c1cccc(C2=CCN(CCc3ccc4ccccc4c3)CC2)c1 | 6.0%&-2.9%
COc1ccc2[nH]c(C)c(CCNCc3cccnc3)c2c1 | -19.5%
CCCCc1ncc(CN2CCCC(C(=O)c3ccc(SC)cc3)C2)[nH]1 (stereo not given) | 3.7%
O=[As]O[As]=O (stereo not given) | 6.8%
c1ccc(CN2CCC3(CCNCC3)CC2)cc1 | ?
C[C@]12C/C(=C/O)C(=O)C[C@@H]1CC[C@@H]1[C@@H]2CC[C@@]2(C)[C@H]1CC[C@]2(C)O | ?
C=CCn1c(O)c(C(C)=NCCCn2ccnc2)c(=O)[nH]c1=O | 17.1%

# Additional compounds
canonical_smiles | VDR inhibitor
CCOC(=O)CCCc1cc[c]([Sb](=[O])([OH])[OH])cc1 | ?
CC(C)CCNC(=O)c1cc(C(=O)c2cc(F)ccc2O)cn(CCC(C)C)c1=O | -8.1%
O=c1c([N+](=O)[O-])cn(O)cc1[N+](=O)[O-] | -19.4%
CN1CC(C(=O)c2ccccc2)C(C(=O)c2ccccc2)C1 (stereo not given) | -5.0%
CC(C)Sc1nnc([C@@H](N)Cc2c[nH]c3ccccc23)o1 | 16.3%
CS/C(N)=C(C#N)/C(C#N)=C(\N)SC | 44.7µM*
COC(=O)C1=CO[C@@H](O[C@@H]2O[C@H](CO)[C@@H](O)[C@H](O)[C@H]2O)C2C(CO)=CCC12 (stereo not given in full) | ?
COc1ccc(-n2c(/C=C/c3ccc(O)c(O)c3)nc3ccccc3c2=O)cc1 | -7.6%
O=c1[nH]c(=S)[nH]c(O)c1N=Nc1cc2c(cc1[N+](=O)[O-])OCO2 | ?
CCOC(=O)Cc1csc(NC(=O)c2c(O)c3ccccc3n(CCC(C)C)c2=O)n1 | -0.4%

# Carrying on.
canonical_smiles | VDR inhibitor
O=C1NC(=O)C(=Cc2c(Cl)cccc2Cl)C(=O)N1 | ?
O=C(CCCC1=NS(=O)(=O)c2ccccc2N1)N1CCC2(CC1)OCCO2 | 3.4%
Cc1ccc(C(=O)NC(O)C(Cl)(Cl)Cl)cc1 (stereo not given) | 10.5%
Cc1nn(C)c(C)c1P(=S)(c1c(C)nn(C)c1C)N(C)C | -2.0%
O=C(O)Cc1cccnc1C(=O)O | -4.0%&-14.8%
OC(CNCCc1c[nH]c2ccccc12)C(F)(F)F (stereo not given) | 40.7%[activator]
CC=C(CC)C1(CC)C(=O)NC(=S)NC1=O | -0.4%
O=C1NC(=O)N(CC2CCCO2)C(=O)/C1=C/c1cccs1 (stereo not given) | -10.7%
O=C(Nc1ccccc1)c1c(O)[nH]c(=O)[nH]c1=O | -5.8%
CC(NCC#Cc1ccccc1)C(O)c1ccccc1 (stereo not given) | 3.9%

# Continued.
canonical_smiles | VDR inhibitor
CCC(=NCCCn1ccnc1)c1c(O)n(-c2ccc(OC)cc2)c(=O)[nH]c1=O | -20.1%
CC(=O)O[C@@H]1CN2CCC1CC2 | 0.1%
COC(=O)C1=C(c2ccc(Cl)c(C(F)(F)F)c2)C[C@@H]2CC[C@H]1N2C(=O)NCCO | -14.9%
CC(=O)[C@H]1CC[C@H]2[C@@H]3CC[C@H]4C[C@H](O)CC[C@]4(C)[C@H]3C(=O)C[C@]12C | -1.3%&-21.7%&-11.7%
Cn1c(O)c(C=NCCc2c[nH]c3ccccc23)c(=O)n(C)c1=O | -20.8%
CC(=Nc1ccc2c(c1)CCC2)c1c(O)n(C)c(=O)n(C)c1=O | 18.2%
CCOC(=O)c1ccccc1N | -12.4%
CCCC(=O)c1c(O)[nH]c(=O)[nH]c1=O | -8.5%
COc1ccccc1-n1c(O)c(C=NC2CC2)c(=O)[nH]c1=O | 7.8%
COc1cc2c3cc1Oc1c(OC)c(OC)cc4c1C(Cc1cccc(c1)Oc1ccc(c(O)c1)CC3N(C)CC2)N(C)CC4 (stereo not given) | 4.2%

# Later entries
canonical_smiles | VDR inhibitor
CCN1C(=O)/C(=C/c2ccc(N(CC)CC)cc2OC)C(=O)NC1=S | ?
COC(=O)C1=C(c2ccc3ccccc3c2)C[C@@H]2CC[C@H]1N2C | -3.5%
CCCN1CC(C)C(OC(C)=O)(c2ccccc2)CC1C (stereo not given) | 4.8%
COc1nc2ccccc2nc1N1CCN(C)CC1 | -4.6%
CC(C)OP(=O)(Oc1ccc(C(O)C(Cl)(Cl)Cl)cc1)OC(C)C (stereo not given) | -21.1%
CNC(=O)N(C)c1ccc(C(O)(C(=O)OC)C(F)(F)F)cc1 (stereo not given) | -3.3%
O=C(c1cccc(C(F)(F)F)c1)N1C[C@H]2C[C@@H](C1)c1cccc(=O)n1C2 | -15.1%
C[C@@H]1O[C@@H](O[C@H]2C[C@@H](O)[C@]3(CO)[C@@H]4C(CC[C@]3(O)C2)[C@@]2(O)CC[C@H](C3COC(=O)C3)[C@@]2(C)C[C@H]4O)[C@H](O)[C@H](O)[C@H]1O (stereo not given in full) | -21.6%
CC(=NCc1ccc2c(c1)OCO2)c1c(O)n(-c2ccc(C)cc2)c(=O)[nH]c1=O | -17.1%
Cc1cc(-c2ccccc2)cc(C)[n+]1Cc1ccccc1 | -3.6%

# For reference, part of the list above.
canonical_smiles | VDR inhibitor
CCN1C(=O)/C(=C/c2ccc(N(CC)CC)cc2OC)C(=O)NC1=S | ?
COC(=O)C1=C(c2ccc3ccccc3c2)C[C@@H]2CC[C@H]1N2C | -3.5%
CCCN1CC(C)C(OC(C)=O)(c2ccccc2)CC1C (stereo not given) | 4.8%
COc1nc2ccccc2nc1N1CCN(C)CC1 | -4.6%

# Further structures
canonical_smiles | VDR inhibitor
Cn1cccc1CNCCc1ccccc1F | -2.1%
Cc1cc(N2CCOCC2)nc2ccc(NC(=O)CCC(=O)N3CCC4(CC3)OCCO4)cc12 | -17.4%
CCCCCl | -2.5%
COC(=O)C1=C(c2cccc(C#N)c2)C[C@@H]2CC[C@H]1N2C(=O)NCCOc1ccccc1Cl | -2.5%
CCOc1cc2c(cc1OCC)-n1cccc1C(c1cccc(F)c1F)NC2 (stereo not given) | -3.5%
COC(=O)C1=CO[C@@H](C)[C@@H]2CN(CCc3c[nH]c4ccccc34)CC[C@H]12 | -3.6%
COc1ccc(-c2cc(=Nc3cccc(C(=O)O)c3)c3cc(C)ccc3o2)cc1 | -10.7%
CC(O)(CS(=O)(=O)c1ccccc1)C(=O)Nc1ccc(C(F)(F)F)cc1 (stereo not given) | -10.9%
C=C1C2CC[C@@]3(C)C(c4ccoc4)OC(=O)C[C@@]13OC1CC(=O)C(C)(C)C(C(OC(C)=O)C(=O)OC)[C@@]12C (stereo not given in full) | -7.2%
c1cc2c(c(NC3=NCCN3)c1)CCCC2 | -13.8%

# More structures follow.
canonical_smiles | VDR inhibitor
CC[C@H]1CN(C)C[C@@]2(C(=O)OC)Cc3c([nH]c4ccccc34)C(=O)C[C@@H]12 | -10.8%
O=c1c2ccccc2nc(-c2ccccc2Cl)n1-c1cccc(O)c1 | -21.9%
O=C(O)c1nonc1-c1nonc1C(=O)O | 5.9%
Cc1ccc(N)cc1N | -18.3%
CCCS(=O)(=O)N1CCC(C(=O)N2CCC3(CC2)OCCO3)CC1 | 12.7%
Cc1cccc(-c2nc3ccc(C(=O)N4CCC5(CC4)OCCO5)cc3nc2-c2cccc(C)c2)c1 | -1.2%
CC(C)[C@H](NC(=O)[C@H](CCC(=O)O)NC(=O)[C@H](Cc1ccccc1)NC(=O)[C@@H](C)NC(=O)[C@@H](N)Cc1ccc(O)cc1)C(=O)N[C@H](C(=O)NCC(N)=O)C(C)C | 7.1%
CC#CP(=O)(OCC)C(O)(c1ccccc1)C(F)(F)F (stereo not given) | -1.4%
COc1ccccc1-n1c(O)c(/C=N/NC(=S)Nc2ccccc2)c(=O)[nH]c1=S | ?
COc1ccc(CNC(C)Cc2cccs2)cc1 (stereo not given) | -1.4%

# (continued)
canonical_smiles | VDR inhibitor
CCOC(=O)c1c(C)n(Cc2ccc(F)cc2)c2ccc(O)cc12 | -14.2%
O=P(Oc1ccccc1)(Oc1ccccc1)N1CCN(c2ccc(F)cc2)CC1 | 3.6%
COC(=O)C1=C(c2c(C)noc2C)C[C@@H]2CC[C@H]1N2C(=O)N1CCCCC1 | -12.8%
Cc1ccc(Cn2nnnc2CN2CCC(n3nnc4cc(C)ccc43)CC2)cc1 | -0.8%
O=C(O)c1ccccc1SSc1ccccc1C(=O)O | ?
O=C1CCc2c(ccc3ccccc23)O1 | ?
CCCN1CCC[C@H](c2cccc(O)c2)C1 | -0.7%&3.4%&4.7%
CCCCCCN=Cc1c(O)n(C)c(=O)n(C)c1=O | 9.3%
COC(=O)[C@@]1(C#N)[C@@H]2C=CC(C(C)=O)=CN2[C@@H](C(N)=O)[C@@H]1c1ccc(F)cc1 | 12.5%
CCOC(=O)N(C)c1ccc(C(O)(C(=O)OC)C(F)(F)F)cc1 (stereo not given) | 6.1%

# (list continues)
canonical_smiles | VDR inhibitor
COC(=O)C1=C(c2ccc(OC)c(OC)c2)C[C@@H]2CC[C@H]1N2C(=O)N1CCCCC1 | -3.3%
CCCCCCCCCC(=O)O[C@H]1CC[C@H]2[C@@H]3CCC4=CC(=O)CC[C@@H]4[C@H]3CC[C@]12C | -12.2%
CCCCn1c(O)c(C(C)=Nc2cccc(C(=O)O)c2)c(=O)[nH]c1=O | 2.8%
COc1cc2c(cc1OC)C13CCN4CC5=CCOC(CC(=O)O)C(C5CC41)C3N2 (stereo not given) | -16.3%
O=c1[nH]c(=O)n(-c2cccc(F)c2)c(O)c1/C=C1\C=Nc2ccccc21 | 5.2%
Cc1c(C=C2C(=O)N(C)C(=S)N(C)C2=O)c2ccccc2n1CC(=O)NCC1CCCO1 (stereo not given) | ?
C[C@@H]1O[C@@H](O[C@H]2CC[C@@H](O[C@H]3[C@H](O)C[C@H](c4ccc5c(c4O)C(=O)C4=C(C5=O)[C@@]5(O)C(=O)C[C@](C)(O[C@H]6CC[C@H](O[C@H]7C=CC(=O)[C@H](C)O7)[C@H](C)O6)C[C@@]5(O)C=C4)O[C@@H]3C)O[C@H]2C)C=CC1=O | 2µM*
COc1ccc(C[C@H]2NC[C@H](O)[C@@H]2OC(C)=O)cc1 | 35.5µM*
O=[N+]([O-])c1ccc(N2CCOCC2)c2ccncc12 | 13.0%
Cc1nn(Cc2ccc(Cl)cc2Cl)c(Cl)c1C(=O)NC1CCCc2ccccc21 (stereo not given) | -14.5%

# Other compounds follow.
canonical_smiles | VDR inhibitor
COc1ccc(CCNCc2ccc(OC)c(OC)c2OC)cc1 | 5.6%
COc1ccc(-n2c(CN3CCOCC3)nc3ccccc3c2=O)c(OC)c1 | 1.9%
CC(C)CCOP(N)(=O)Oc1ccccc1 (stereo not given) | -15.9%
COc1cc2c(cc1OC)-c1c(OC)c(OC)cc3c1[C@H](C2)N(C)CC3 | -3.4%
O=C1NC2C(=CC(O)C(O)C2O)c2cc3c(cc21)OCO3 (stereo not given) | -5.3%
CCCC[N+]12CCC(CC1)C(C(O)(c1ccccc1)c1ccccc1)C2 (stereo not given) | 0.7%
CC(Cc1ccccc1)NC(=O)/C=C/C(=O)O (stereo not given) | -3.3%
NC1=N[C@H](O)[C@H]2C3O[C@]4(O)O[C@H](C(O)[C@@]2(N1)[C@@H]4O)C3(O)CO (stereo not given in full) | -5.5%
COc1ccc(NC(=O)c2ccc(COCC(F)(F)C(F)F)cc2)cc1 | -0.2%
O=C1CN(O)C(c2ccccc2)=c2cc(Cl)ccc2=N1 | -11.4%&5.0%

# Next section:
canonical_smiles | VDR inhibitor
c1cnc(N2CC3(CCNCC3)C2)nc1 | -14.0%
C=CCn1c(O)c(C(C)=Nc2ccc(C(=O)O)cc2)c(=O)[nH]c1=O | 1.9%
COc1cc2c(c3oc4cccc(O)c4c(=O)c13)C1C=CO[C@@H]1O2 (stereo not given in full) | 0.2%
COC(=O)C1=C(c2ccc(F)cc2OCc2ccccc2)C[C@@H]2CC[C@H]1N2C(=O)NCCc1ccc(F)cc1 | 6.1%
Fc1ccccc1CNCCc1c[nH]c2ccccc12 | 6.4%
CC(C)C/C(=N/O)c1cn(C)c2ccccc12 | -8.7%
CCOc1ccc(N2C(=O)/C(=C/c3ccco3)C(=O)NC2=S)cc1 | 79.4µM*
CCS(=O)(=O)Nc1cccc(C(=C2CCCCC2)c2cnc[nH]2)c1 | -0.4%&-13.3%
CC[C@]12C=CCN3CCC4(c5cc(Br)c(OC)cc5N(C)C4[C@@](O)(C(=O)OC)[C@@H]1OC(C)=O)C32 (stereo not given in full) | -12.6%
O=C(Cn1cnc2sc3c(c2c1=O)CCCC3)NCCCC(=O)N1CCC2(CC1)OCCO2 | 2.7%

# Screening results as filed in PubChem BioAssay.
